Marburg entry: qHTS for Inhibitors of binding or entry into cells for Marburg Virus; Potency, µM (series often up to 49.2 µM), for the others: at the highest dose activity change, negative = inhibition, hits mostly inhibitors; 6.5% of 18,000 active; Marburg virus pseudotype entry/binding inhibition, cell-based; control for the full effect not named in the record; many of its hits are not listed in these tables; active means well fitted inhibition curve with a large enough effect; inconclusive means small, poorly fitted or top-dose-only effect; inactive means no such curve, though single readings can be large or run the other way; tested in HEK293 cells; note: luciferase read-out
Lassa entry: qHTS for Inhibitors of binding or entry into cells for Lassa Virus; Lassa virus pseudotyped entry inhibition, cell-based qHTS; control for the full effect not named in the record; many of its hits are not listed in these tables; Potency, µM (highest dose often 49.2 µM), without a hit: at the highest dose activity change, negative = inhibition, hits mostly inhibitors; 4.1% of 18,000 active; active = well fitted inhibition curve with a large enough effect; inconclusive = small, poorly fitted or top-dose-only effect; inactive = no such curve, though single readings can be large or run the other way; tested in HEK293 cells; note: luciferase read-out
Numbers without * were called inactive; ? = inconclusive; nt = not tested or not shown; & = joins results of further samples; ! = not confirmed by another sample; [ ] = another dose, or the depositor's remark. % is set by controls: 0 for no effect and ±100 for the full control effect; potency is the fitted concentration of half-maximal effect. Not all compounds are listed; count on the stated rates, not on these rows.

A first look:
nr	canonical_smiles	Marburg entry	Lassa entry
1	O=S1(=O)CC(N2CCC(c3ccccc3)CC2)CN1Cc1ccccc1 (stereo not given)	-6.0%	13.2%
2	O=C1OCCN1C(=O)[C@H]1[C@H](c2ccc(F)cc2)C(c2cccc(Cl)c2)=NN1c1ccc(Br)cc1	?	-17.9%
3	C=CCOC(=O)C(C(C)=O)[C@@H](NC(=O)OC)c1cccc(F)c1 (stereo not given in full)	12.5%[8.59 µM]	-5.3%[8.59 µM]
4	CC1=C[C@H](O)CC(C)(C)[C@H]1/C=C/C(C)=C/C=C/C(C)=C/C=C/C=C(C)/C=C/C=C(C)/C=C/C1=C(C)C[C@@H](O)CC1(C)C	18.1%	-0.1%
5	CC(=O)C1CC[C@H]2C3CC[C@@H]4CC(O)CC[C@@]4(C)C3CC[C@]12C (stereo not given in full)	?	-10.6%

This part in full, from the first entry:
nr	canonical_smiles	Marburg entry	Lassa entry
1	O=S1(=O)CC(N2CCC(c3ccccc3)CC2)CN1Cc1ccccc1 (stereo not given)	-6.0%	13.2%
2	O=C1OCCN1C(=O)[C@H]1[C@H](c2ccc(F)cc2)C(c2cccc(Cl)c2)=NN1c1ccc(Br)cc1	?	-17.9%
3	C=CCOC(=O)C(C(C)=O)[C@@H](NC(=O)OC)c1cccc(F)c1 (stereo not given in full)	12.5%[8.59 µM]	-5.3%[8.59 µM]
4	CC1=C[C@H](O)CC(C)(C)[C@H]1/C=C/C(C)=C/C=C/C(C)=C/C=C/C=C(C)/C=C/C=C(C)/C=C/C1=C(C)C[C@@H](O)CC1(C)C	18.1%	-0.1%
5	CC(=O)C1CC[C@H]2C3CC[C@@H]4CC(O)CC[C@@]4(C)C3CC[C@]12C (stereo not given in full)	?	-10.6%
6	CNCCC(Oc1ccccc1OC)c1ccccc1 (stereo not given)	?	-0.1%
7	Cn1c(CCCC(=O)O)nc2cc(N(CCCl)CCCl)ccc21	14.1%	?
8	C[C@@](N)(C(=O)O)c1ccc(S(=O)(=O)O)cc1	11.2%	4.4%
9	C[C@@H]1CN(Cc2ccc3c(c2)CN(Cc2cn[nH]c2-c2ccccc2)CCO3)C[C@H](C)O1	-7.2%	-10.7%
10	C=CCNC1=C2C[C@@H](C)C[C@H](OC)[C@H](O)[C@@H](C)/C=C(\C)[C@H](OC(N)=O)[C@@H](OC)/C=C\C=C(/C)C(=O)NC(=CC1=O)C2=O	?	3.55µM*!
11	O=C(c1ccnc(-n2cnnn2)c1)N1CCOc2ccc(C(O)CCc3ccccc3)cc2C1 (stereo not given)	3.3%	-14.2%
12	Cc1nc2cc(NC(=O)[C@@H]3C[C@@H](Sc4ccccn4)CN3C3CCCCCC3)ccc2s1	4.1%	-5.4%
13	COc1cccc(-c2cc3c(c(OC)c2)OCCN(Cc2cccn2-c2ccccn2)C3)c1	-19.0%	5.5%
14	Cc1cc(-c2ccc(N=Nc3c(S(=O)(=O)O)cc4cc(S(=O)(=O)O)cc(N)c4c3O)c(C)c2)ccc1N=Nc1c(S(=O)(=O)O)cc2cc(S(=O)(=O)O)cc(N)c2c1O	?	?
15	CC[C@@H](C)[C@H]1O[C@]2(CC[C@@H]1C)C[C@@H]1C[C@H](C/C=C(/C)[C@H](O[C@@H]3C[C@H](OC)[C@H](O[C@@H]4C[C@H](OC)[C@@H](O)[C@H](C)O4)[C@H](C)O3)[C@@H](C)/C=C\C=C3CO[C@@H]4[C@H](O)C(C)=C[C@@H](C(=O)O1)[C@]34O)O2 (tested in a mixture with another compound)	-4.2%	?
16	O=C1CC[C@@]23CCCN2C(=O)CCCC3C1 (stereo not given in full)	16.7%[107 µM]	0.7%[107 µM]
17	CO[C@H]1[C@H](NC(=O)c2ccco2)c2ccccc2C12CCN(Cc1cc(Cl)ccc1O)CC2	?	-28.3%
18	O=C(O)/C=C/C(O)c1ccc(Cl)cc1 (stereo not given)	-12.8%	?
19	COc1cccc(C(CC2=CCCCC2)NC(=O)C(F)(F)F)c1 (stereo not given)	28.6%[8.59 µM]	42.1%[activator][8.59 µM]
20	C#CCCCCCCCCCCCC(O)CC(O)CO (stereo not given)	?	-27.6%
21	C=CS(=O)(=O)N[C@@H](CSSC[C@H](NS(=O)(=O)C=C)C(=O)OC)C(=O)OC	15.8%	-9.5%
22	Cc1ncc2c(c1CNS(=O)(=O)N(C)C)CCN(C(=O)c1ccc(F)cc1Cl)C2	-21.9%	-18.5%
23	CCCCCCCCNCCS(=O)(=O)NCc1ccccc1OC	?	-7.8%
24	CCC1CN(CC(=O)NC(C)CO)Cc2cc(OC)ccc2O1 (stereo not given)	1.2%	-1.5%
25	CC(C)=CCCC(C)=CCON=C1C[C@@H](O)[C@@H](O)[C@@H]2[C@H]3C(=O)N(Cc4ccc5c(c4)OCO5)C(=O)[C@@H]3CC[C@@H]12	-43.7%[8.59 µM]	nt
26	COC(=O)[C@@H]1CC[C@H](C)[C@@H](c2ccc(C)cc2)N1C(=O)c1ccc(C=NO[C@H](C)CN2CCCc3nc(C)c(C)cc32)cc1	?	7.2%[8.59 µM]
27	O=[N+]([O-])c1ccc2cn[nH]c2c1	3.8%	1.4%
28	Cc1c(C(=O)NCCCN2CCCC2=O)cnn1-c1ncc2c(n1)-c1ccccc1CC2	-13.8%	25.1%
29	COc1cccc(O[C@H]2C=C[C@@H](c3ccccc3)O[C@H]2CO)c1	4.1%[8.59 µM]	6.7%[8.59 µM]
30	O=C(Oc1ccccc1)c1cccc(C(=O)Oc2ccccc2)c1	14.5%[107 µM]	-9.2%[107 µM]
31	CC(=O)OCC(=O)[C@@]12OC3(CCCC3)O[C@@H]1C[C@H]1[C@@H]3CCC4=CC(=O)C=C[C@]4(C)[C@@]3(F)[C@@H](O)C[C@@]12C	-10.5%	-24.6%
32	COc1cc2c(c(OC)c1OC)-c1ccc(O)c(=O)cc1[C@@H](NC(C)=O)CC2	?	-6.9%
33	CN1CCc2cc(Cl)c(O)cc2[C@@H](c2ccccc2)C1	9.4%&-11.2%	-12.9%&4.9%
34	CC(=O)CCN1CCSCCS1(=O)=O	21.0%	13.7%
35	C=CCN1c2ccccc2[C@]23CCC(=O)N(CCCOC(C)C)C2=NC(C(=O)OC)=C(C(=O)OC)[C@H]13	-10.2%[8.59 µM]	-1.4%[8.59 µM]
36	COC(=O)[C@H](NC(=O)c1cc(-c2ccccc2)nc2ccccc12)c1ccccc1	11.9%	?
37	O=C(/C=C/c1ccccc1)c1ccc(O)cc1	?	-14.3%
38	C#CCCOC(=O)N1C2=NC(C(=O)OC)=C(C(=O)OC)[C@@H]3N(C)c4ccccc4[C@]23C[C@H]1C(=O)OC	32.4%[activator][8.59 µM]	nt
39	CCC[C@H](NC(C)=O)C(=O)N[C@H]1CC(=O)ONCCCC[C@@H](C(N)=O)NC(=O)[C@H](Cc2c[nH]c3ccccc23)NC(=O)[C@H](CCCN=C(N)N)NC(=O)[C@@H](Cc2ccc3ccccc3c2)NC(=O)[C@H](Cc2cnc[nH]2)NC1=O	2.7%	-4.1%
40	C=C1C(O)C2OC3(CCC(/C=C/C(C)C4CC(C)=CC5(OC(CC(C)(O)C(=O)O)CCC5O)O4)O3)CCC2OC1C(O)CC(C)C1OC2(CCCCO2)CCC1C (stereo not given)	0.146µM*	?
41	C=C[C@H]1CCC=C2C(=O)CCC[C@@H]21	-14.3%	-10.1%
42	Cc1c(C(=O)NCc2ccco2)cnn1-c1ncc2c(n1)-c1ccccc1CC2	-11.5%	3.2%
43	CCCc1nc2cccnc2n1C1CCN(C(=O)CC2NC(=O)c3ccccc32)CC1 (stereo not given)	9.9%	-4.2%
44	CNC(=O)C[C@H]1C(=O)N(CCc2ccccc2)C[C@@H]1C	10.8%	-13.9%
45	Cc1cccc(CNC(=O)c2cnn(-c3nccc(-c4cc(C)sc4C)n3)c2C)n1	-8.4%	-20.3%
46	Clc1ccc(C(Cn2ccnc2)OCc2csc3c(Cl)cccc23)c(Cl)c1 (stereo not given)	2.2%[17.8 µM]	0.2%[17.8 µM]
47	C=CC[C@H]1C(=O)N2[C@@H](C[C@@H](C)[C@@H]2c2ccccc2)[C@@H](CC=C)C(=O)N2[C@H]1C[C@@H](C)[C@@H]2c1ccccc1	?	30.8%[activator][8.59 µM]
48	COc1cc2c(cc1OC)[C@@H]1O[C@](c3ccsc3)(C2)OC2=C1C(=O)OC1(CCCCC1)C2	?	nt
49	NCC(O)COc1cccc2ccccc12 (stereo not given)	?	-17.7%
50	CN(Cc1ccccc1F)c1cc2c(c3c1ccn3C)C1CCC2C1 (stereo not given)	-18.2%	-8.7%
51	O=C(O)c1cc(C(=O)O)c(C(=O)N(Cc2cccc(Oc3ccccc3)c2)[C@H]2CCCc3ccccc32)cc1C(=O)O	7.3%	-6.1%
52	COC(=O)CC1c2ccccc2C=C(C=Cc2ccc3c(c2)OCO3)N1C(=O)OC (stereo not given)	-18.2%[8.59 µM]	nt
53	C=CCOC(=O)C(C(C)=O)[C@@H](NC(=O)OC)c1ccc(Cl)cc1 (stereo not given in full)	-10.3%[8.59 µM]	-4.1%[8.59 µM]
54	COc1cc2c(c(OC)c1OC)-c1c(cc3c(c1OC)OCO3)C[C@@H](C)[C@](C)(O)C2	2.5%&3.4%	-0.4%&-2.4%
55	CSCC[C@H](NC(=O)[C@H](CC(C)C)NC(=O)[C@@H]1CCCN1C(=O)[C@H](Cc1ccccc1)NC(=O)[C@H](Cc1ccccc1)NC(=O)[C@H](CCC(N)=O)NC(=O)[C@H](CCC(N)=O)NC(=O)[C@@H]1CCCN1C(=O)[C@H](CCCCN)NC(=O)[C@@H]1CCCN1C(=O)[C@@H](N)CCCN=C(N)N)C(N)=O	3.2%	12.0%
56	CC(=O)OC[C@H]1O[C@H](C#Cc2ccccc2Cl)C=C[C@H]1OC(C)=O	-1.2%[8.59 µM]	-4.9%[8.59 µM]

Further entries:
nr	canonical_smiles	Marburg entry	Lassa entry
57	COC(=O)C(C(C)=O)C(NC(=O)OC(C)(C)C)c1ccccc1 (stereo not given)	-3.4%	-0.8%
58	OC1C2COC(O2)[C@H](O)C1O (stereo not given in full)	-11.1%	-1.3%
59	C[N+]1(C)CCC(OC(=O)C(c2ccccc2)c2ccccc2)CC1	13.4%&6.7%	-11.3%&3.6%
60	O=S1(=O)CC(N2CCN(c3ccccn3)CC2)CN1Cc1ccccc1 (stereo not given)	0.8%	-11.5%
61	CCCCCCCCCCCCN=C(N)N	?	-14.9%
62	CCN(CC)CCC(=O)N1c2ccccc2Sc2ccc(C(F)(F)F)cc21	?	?
63	COc1ccccc1-c1nccc(NCc2cccc(C)c2)n1	12.6µM*	-19.1%
64	CC(C)NC(=O)[C@@H]1C[C@@H](Sc2ccccn2)CN1C1CCN(C)CC1	14.5%	-3.1%
65	N[C@@H](Cc1ccc(O)cc1)C(=O)O	10.9%	-7.8%
66	Cc1ccc(C(=O)NCCc2nnc3n2CCN(C(=O)c2ccnc(Cl)c2)CC3)cc1	-0.2%	0.4%
67	C=C1C2CC[C@]3(CCC4[C@@]5(C)CCC[C@@]4(CN(CCO)C5)[C@@H]3C2)[C@@H]1O (stereo not given in full)	?	-15.4%
68	COc1cccc([C@@H]2Oc3ccc(OC)cc3C[C@H]2OC(=O)Nc2ccc(OC(F)F)cc2)c1	24.2%	?
69	Cc1cc(Nc2ccccc2C(=O)O)ccc1Cl	24.3%	14.5%
70	O=C(Nc1ncc([N+](=O)[O-])s1)c1cccs1	18.1%	-18.8%
71	COC/C=C/C1=CC2=CC(=O)C(C)(OC(=O)C3CCCC3)C(=O)C2=CO1 (stereo not given)	-4.5%	3.5%
72	c1cncc(CNc2ncncc2-c2ccc3c(c2)OCO3)c1	20.0%	-11.0%
73	CCOP(=S)(OCC)Oc1ccc(Cl)cc1Cl	?	6.9%
74	OC[C@@H]1O[C@H](OC2[C@@H](O)[C@@H](O)[C@@H](O)O[C@@H]2CO)[C@H](O)[C@@H](O)[C@@H]1OC1O[C@H](CO)[C@@H](O)[C@H](O)[C@@H]1O (stereo not given in full)	8.5%	0.3%
75	CCN1C(=NCc2ccc(OC)cc2)N[C@@H](CCc2ccccc2)[C@H](C(=O)NCc2ccc(OC)cc2)[C@H]1C	5.3%[8.59 µM]	-8.1%[8.59 µM]
76	CCC1CN(CCNC(=O)c2cccc(C(=O)OC)c2)Cc2cc(OC)ccc2O1 (stereo not given)	0.9%	-15.5%
77	COC(=O)c1ccc(CN2CCOc3ccc(CN4CCC(O)(c5cccnc5)CC4)cc3C2)cc1	?	?
78	CCCCCCCCCCC(CO)CCCCCCCC (stereo not given)	0.2%	4.5%
79	CC(=O)OCOC(=O)CN(CC(=O)OCOC(C)=O)c1ccccc1OCCOc1ccccc1N(CC(=O)OCOC(C)=O)CC(=O)OCOC(C)=O	15.8µM*	?
80	O=C(Nc1ccc(O)c2c(=O)cc(-c3cccc(Cl)c3)oc12)c1ccc(F)cc1	-9.5%	nt
81	CN[C@@H](C)Cc1ccccc1	0.6%[107 µM]	-9.2%[107 µM]
82	C[C@@H]1O[C@@H](Oc2c(-c3cc(O)c(O)c(O)c3)oc3cc(O)cc(O)c3c2=O)[C@H](O)[C@H](O)[C@H]1O	?	-2.1%
83	CC(=O)NCCCC[C@H](NC(=O)OC(C)(C)C)C(=O)Nc1ccc2c(C(F)(F)F)cc(=O)oc2c1	?	-2.6%
84	C=C(C(=O)OCC)C(=O)c1ccccc1	1.4%	-3.8%
85	O=S1(=O)CC(N2CCN(CC3CC3)CC2)CN1CCc1ccccc1 (stereo not given)	14.8%	3.9%
86	CCN(CC)C(=O)C(C)Oc1cccc2ccccc12 (stereo not given)	4.7%	-1.4%
87	CN1CCN=C(c2ccccc2)c2cc(Cl)ccc21	?	1.1%

Screening results: PubChem, National Center for Advancing Translational Sciences (NCATS)
